High-throughput results as filed in PubChem BioAssay.
HTT promoter inh = inhibits huntingtin promoter activity. hit rate 0.93% among 48,000. AID 1508623. Potency, µM (highest dose often 57.5 µM), inactives show at the top dose activity change, negative = inhibition, most hits filed as inhibitors. HEK293 HTT promoter firefly luciferase reporter (activity 0% = vehicle and -100% = no light), 24 h; active = well fitted inhibition curve with a large enough effect; inconclusive = small, poorly fitted or top-dose-only effect; inactive = no such curve, though single readings can be large or run the other way; note: nearly all actives have a fitted effect of over 50% in size
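Firefly luciferase signal from promoter-reporter HEK293 cells was scaled between vehicle (0%) and zero RLU (-100%). Compounds were tested at final concentrations of up to 57.5 uM over 24 h at 37 degrees C. PTC124 at 50 uM final served as control inhibitor.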
PMP22 txn = modulators of PMP22 gene transcription in S16 Schwann cells; AID 1508649; S16 Pmp22-F2sN Schwann cells (luciferase reporters placed in the Pmp22 gene), FLuc/NLuc coincidence luminescence, 24 h; hit rate 2% among 43,000; Potency, µM (highest dose often 57.5 µM), without a hit: at the highest dose activity change, negative = inhibition, hits mostly inhibitors; active = clear falling dose curves in both reporters; inconclusive = both reporters move, but less clearly or upward; inactive = either reporter flat; the % is the NLuc reporter signal; note: % is set by controls: 0 for no effect and ±100 for the full control effect; some results filed as inactive show a strong effect at the top dose
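Transcriptional readout in edited S16(c9) cells: two luciferases reported from the Pmp22 locus, measured in turn after 24 h compound incubation.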
An asterisk follows results filed as active; ? = inconclusive; . = not tested or not shown; & = joins results of further samples; [ ] = another dose, or the depositor's remark. Potency is the fitted concentration of half-maximal effect. These rows are one share of the data; the hit share may differ from the screen's.

SMILES	HTT promoter inh	PMP22 txn
CC1=C(C(=O)Nc2ccccc2)C(c2ccc(C(=O)O)cc2)n2ncnc2N1 (configuration not stated)	-2%	14%
COc1ccc(CCNC(=O)c2cc3c(s2)-c2ccccc2OC3)cc1OC	?	-25%
Cc1cc(C)cc(NC(=O)c2cnc3sc(N4CCCC4)nn3c2=O)c1	-23%	-4%
CCOC(=O)C1CCN(C(=O)Cn2nc(C)n3c(cc4sccc43)c2=O)CC1	-6%	-11%
CCc1nnc(NC(=O)CSc2nc3c([nH]c4ccccc43)c(=O)n2-c2ccc(C)cc2)s1	-25%	?
CCN(c1ccccc1)S(=O)(=O)c1ccc(NC(=O)c2cc(=O)c3cc(C)ccc3o2)cc1	-11%[11.5 µM]	-15%
COc1ccc(C(CNC(=O)COc2cc(C)c(Cl)c(C)c2)N2CCCCC2)cc1 (configuration not stated)	?	-35%
COc1ccccc1NC(=O)CCn1cnc2onc(-c3ccc(F)cc3)c2c1=O	?	-14%
CCOC(=O)c1cccc(NC(=O)c2cc3c(Cl)nc4ccc(C)cc4c3s2)c1	-17%	-2%
CC(C)CCNC(=O)c1ccc2c(c1)N(Cc1ccccc1F)C(=O)c1ccccc1S2=O (configuration not stated)	-25%	?
COc1cc(Cl)c(C)cc1NC(=O)CCc1nc2cccnc2n1-c1ccccc1	-15%	-11%
CC1=C(c2ccc(C)c(C)c2)S(=O)(=O)N(Cc2ccc(C(=O)NCc3cccc(C)c3)cc2)C1=O	-28%	-21%
Cc1cccc(N2CCN(C(=O)c3ccc(CS(=O)c4cccc(Cl)c4)o3)CC2)c1C (configuration not stated)	?	9.6µM*
CCC(C)n1c(=O)c2sccc2n2c(CCCC(=O)Nc3ccc(F)cc3)nnc12 (configuration not stated)	-21%	-11%
CCOC(=O)C1=C(CN2CCN(c3ccc(Cl)cc3)CC2)NC(=O)NC1c1ccc(OC)cc1 (configuration not stated)	-20%	10%
CC(NC(=O)CN1C(=O)c2cccnc2Oc2ccc(Cl)cc21)c1ccccc1 (configuration not stated)	6%	-11%
CCS(=O)(=O)c1ncc(N(Cc2ccccc2)Cc2ccco2)c(C(=O)Nc2ccc(C)c(C)c2)n1	?	3%
CC(C)CCNC(=O)CN1C(=O)c2cccnc2Oc2ccccc21	3%	0%
Cc1cc(C)nc(-n2nc(C)c3c2NC(=O)CC3c2cc(F)ccc2F)n1 (configuration not stated)	-15%	?
COc1ccccc1NC(=O)COc1ccc(-c2nn(C)c(=O)c3ccccc23)cc1	?	?
CCOc1cc(C(=O)Nc2ccc(S(=O)(=O)Nc3cc(OC)nc(OC)n3)cc2)cc(OCC)c1OCC	-18%	-171%
CCOc1ccc(CCNC(=O)CN2C(=O)C(CC)Oc3ccccc32)cc1OCC (configuration not stated)	-17%	-2%
Cc1ccccc1CSc1nc2nc(C)c(Cc3ccccc3)c(C)n2n1	7%	-27%
Cc1ccc(/C=C/c2onc(C)c2S(=O)(=O)N2CCC(C(=O)Nc3cccc(C#N)c3)CC2)cc1	?	12µM*
CN(C)c1ccc(CNC(=O)c2cccn2-c2nnc(N3CCCCC3)s2)cc1	-27%	?
CCOc1ccc(NC(=O)C(=O)NCCc2ccccc2)cc1	-1%[11.5 µM]	11%
CC(=O)Nc1nonc1-c1nc2ccccc2n1Cc1ccccc1Br	3%	-30%
CCc1ccc(-n2c(=O)c3cccnc3n2CC(=O)Nc2ccccc2C(F)(F)F)cc1	-20%	-3%
Cc1c(Cl)cccc1NC(=O)CSc1nc(=O)[nH]c2c1CCCC2	?	?
O=C(Cn1ccc2cc(S(=O)(=O)N3CCCCCC3)ccc21)NCc1ccccc1Cl	?	?
CCCCSCCCNC(=O)C1CCN(Cc2nc(-c3ccc(CC)cc3)oc2C)CC1	-7%	?
CCOc1cc2[nH]c(=O)n(CCCCCC(=O)NC(C)CC)c(=O)c2cc1OCC (configuration not stated)	-7%	?
CC(=O)OC1=CN(Cc2ccccc2)S(=O)(=O)c2ccccc21	-15%	-15%
O=C(Nc1ccc(NC(=O)c2cc3ccccc3o2)cc1)c1ccccc1	0%	0%
Cc1oc2ccc(O)c(CN(C)Cc3ccccc3)c2c1C(=O)Nc1cccc(Cl)c1C	?	?
COc1cccc(Cn2c(CNC(=O)C(C)C)nc3cccnc32)c1	7%	-2%
Cc1ccc(NC(=O)Nc2c(C)n(C)n(-c3ccccc3)c2=O)c(Cl)c1	-29%	?
COc1c(Cl)cc(Cl)cc1C(=O)Nc1cccc2cccnc12	-12%	-2%
O=C(NCCCN1CCN(c2ccccc2)CC1)c1sc2ncccc2c1-n1cccc1	-25%	-5%
CN(C)c1ccc(C(=C2C=CC(=[N+](C)C)C=C2)c2ccc(N(C)C)cc2)cc1	?	.
Cc1cc(=O)[nH]c2nnc(SCCC(C)C)n12	-8%	-3%
CCCN(C(=O)c1c(C)oc2ncn(CC(C)C)c(=O)c12)c1ccccc1C	-1%	11%
O=C(CN1C(=O)c2cccnc2Oc2ccc(Cl)cc21)Nc1cccc(C(F)(F)F)c1	-23%	-6%
CO[C@@H]1[C@@H](OC(N)=O)[C@@H](O)[C@H](Oc2ccc3c(O)c(NC(=O)c4ccc(O)c(CC=C(C)C)c4)c(=O)oc3c2C)OC1(C)C	0%&-2%	.
CCOC(=O)c1ccc(NC(=O)CCCc2nc(-c3ccccc3Cl)no2)cc1	-19%	-21%
CC(C)NC(=O)C1CCN(c2nc3ccccc3nc2C(F)(F)F)CC1	-16%	-7%
Cc1ccc(-n2nc(C)c3c(C)cc(=O)n(CC(=O)Nc4ccc(C(C)C)cc4)c32)cc1	-8%	?
COc1ccc(N2CCN(C(=O)c3cn(C)c4ccc(S(=O)(=O)N5CCOCC5)cc4c3=O)CC2)cc1	-19%[11.5 µM]	2%
CCOC(=O)c1ccc(NC(=O)c2nc(SCc3ccc(F)cc3)ncc2Cl)cc1	?	-29%
CN(C(=O)CSc1nc2ccccc2n1CC(=O)N(C)C1CCCCC1)c1ccc(F)cc1	-18%	-9%
Next entries.
SMILES	HTT promoter inh	PMP22 txn
Cc1ccc(CNC(=O)Nc2cc(C(=O)NCc3ccc(C(C)C)cc3)ccc2N2CCCC2)cc1	?	8%
COc1ccc(-n2ccnc(NCc3ccccc3Cl)c2=O)cc1OC	-4%	37%
Cc1ccc(-c2cc(C(=O)Oc3ccccc3)c3cccc(C)c3n2)cc1	-15%	-5%
O=C(Nc1ccc(Br)cc1F)c1cc(S(=O)(=O)NC2CCCC2)ccc1F	?	23%
Cc1ccc2oc(=O)n(Cc3ccccc3Cl)c2c1	5%	0%
COc1cccc(CNC(=O)C2CCCN(S(=O)(=O)c3cn(C)cn3)C2)c1 (configuration not stated)	-11%	-3%
Cc1cccc(Cn2c(=O)n(Cc3ccc4c(c3)OCO4)c(=O)c3oc4ccccc4c32)c1	-9%	3%
CCc1ccc(CNC(=O)c2cnc3sc(N4CCCC4)nn3c2=O)cc1	9%	-8%
CC(=O)c1cccc(NC(=O)CN(c2cc(C)cc(C)c2)S(=O)(=O)c2c(C)noc2C)c1	-9%	?
Cc1ccc(CNc2ccc(-c3nc(-c4ccncc4)no3)cc2[N+](=O)[O-])cc1	-5%	-11%

Brought forward from above: two entries, then new ones.
SMILES	HTT promoter inh	PMP22 txn
CC(=O)c1cccc(NC(=O)CN(c2cc(C)cc(C)c2)S(=O)(=O)c2c(C)noc2C)c1	-9%	?
Cc1ccc(CNc2ccc(-c3nc(-c4ccncc4)no3)cc2[N+](=O)[O-])cc1	-5%	-11%
Cc1ccc2occ(CC(=O)N(Cc3ccccc3Cl)C3CCS(=O)(=O)C3)c2c1 (configuration not stated)	-27%	-9%
Cc1ccc(NC(=O)Cn2c(=O)n(-c3ccc(Cl)c(Cl)c3)c(=O)c3c(C)c(C)sc32)c(C)c1	-11%	-42%
Cc1ccc(NS(=O)(=O)c2cc(Br)cc3c2N(C(=O)C2CC2)CC3)cc1C	5.6µM*	8.9µM*
CCOC(=O)C1CCN(C(=O)Cn2nc(C)n3c(cc4c(OC)cccc43)c2=O)CC1	-20%	-7%
CCOc1ccccc1-c1nc(C(N)=O)c2c(n1)n(-c1ccc3c(c1)OCO3)c(=O)n2C	-9%	-17%
O=C(NCCC1=CCCCC1)c1ccc2c(c1)N(Cc1cccc(Cl)c1)C(=O)c1ccccc1S2(=O)=O	-45%	-8%
CCc1ccc(NC(=O)CSc2nccn2-c2cccc(C)c2C)cc1	?	?
CC(=O)Nc1cccc(NC(=O)CSc2cn(CC(=O)N3CCCCCC3)c3ccccc23)c1	-20%	-29%
CCOc1ccc(CNC(=O)c2ccc3c(c2)c(C)c(C)n3Cc2ccccc2)cc1OC	10%	?
CCOc1ccc(N2CC(c3nc4ccccc4n3Cc3cccc(Cl)c3)CC2=O)cc1 (configuration not stated)	?	?
CCCCCNC(=O)c1ccc2c(c1)ncn2-c1cccc(C)c1	-24%	-70%
Cc1ccc(NS(=O)(=O)c2c(C(=O)N3CCC(C)CC3)c(C)n(C)c2C)cc1Cl	?	-5%
COc1ccc(C2CC(=O)c3cc(-c4nc(-c5cccc([N+](=O)[O-])c5)cs4)c(=O)n(-c4ccccc4N)c3C2)cc1 (configuration not stated)	-11%	4%
COc1ccc2cc1Oc1ccc(cc1)C[C@H]1c3cc(c(OC)cc3CCN1C)Oc1c(OC)c(OC)cc3c1[C@H](C2)N(C)CC3	?	.
COc1ccccc1CNC(=O)CC(c1ccc(C)cc1)N1Cc2ccccc2C1=O (configuration not stated)	-4%	-12%
COc1cccc(CNC(=O)Cn2c(=O)oc3cc(S(=O)(=O)N4CCCCCC4)ccc32)c1	?	-54%
Cc1ccc(C(c2cccc(Br)c2)c2c(C)[nH]c3ccccc23)s1 (configuration not stated)	0%	10%
CCOC(=O)c1ccc(-c2ccc(/C=C(\C#N)C(=O)Nc3ccc(OCC)cc3)o2)cc1	30%	0%
O=c1oc2ccccc2cc1-c1nc(-c2cccs2)no1	50%[activator]	?
COc1ccccc1-n1nc(-c2ccccc2)c2cnc3cc(C(F)(F)F)ccc3c21	-9%	13%
CCOC(=O)c1ccc(Nc2c(-c3ccc(O)c(OC)c3)nc3nc[nH]n23)cc1	-2%	?
COc1ccc(NC(=O)C2CCCN(S(=O)(=O)c3ccc4c(c3)CCCC(=O)N4)C2)c(OC)c1 (configuration not stated)	?	?
COC(=O)c1cc(NC(=O)c2ccc3c(c2)N(Cc2cccc(Cl)c2)C(=O)c2ccccc2S3=O)cc(C(=O)OC)c1 (configuration not stated)	-12%	7%
Cc1ccc(CNC(=O)CCCn2c(=O)c3ccccc3n(CC(=O)Nc3ccc(C)cc3)c2=O)cc1	-1%	?
O=C(c1ccc(F)cc1)N1CCC(c2nc3ccccc3s2)CC1	?	?
CCc1nn(CC(=O)N2CCC(C)CC2)c(=O)c2cc3occc3n12	-9%	-26%
CC(C)(C)OC(=O)N1CCC(c2c(C(=O)NCCN3CCC(Cc4ccccc4)CC3)cnn2-c2cccc(Cl)c2)CC1	?	?
CC(=O)c1ccc(NC(=O)c2nc(-c3ccc(Cl)cc3)n3c2CCCCC3)cc1	-11%[11.5 µM]	23%
COc1cccc(-n2c(C)nc3cc(C(=O)O)ccc32)c1	-5%	-33%
CCN(CC)CCNC(=O)c1cc2c(=O)oc3ccc(C)cc3c2s1	-6%	-25%

Part of the list above, with values under each structure:
Value order: HTT promoter inh | PMP22 txn
> Cc1ccc(-n2nc(C)c3c(C)cc(=O)n(CC(=O)Nc4ccc(C(C)C)cc4)c32)cc1
    -8% | ?
> COc1ccc(N2CCN(C(=O)c3cn(C)c4ccc(S(=O)(=O)N5CCOCC5)cc4c3=O)CC2)cc1
    -19%[11.5 µM] | 2%
> CCOC(=O)c1ccc(NC(=O)c2nc(SCc3ccc(F)cc3)ncc2Cl)cc1
    ? | -29%
> CN(C(=O)CSc1nc2ccccc2n1CC(=O)N(C)C1CCCCC1)c1ccc(F)cc1
    -18% | -9%
> Cc1ccc(CNC(=O)Nc2cc(C(=O)NCc3ccc(C(C)C)cc3)ccc2N2CCCC2)cc1
    ? | 8%
> COc1ccc(-n2ccnc(NCc3ccccc3Cl)c2=O)cc1OC
    -4% | 37%
> Cc1ccc(-c2cc(C(=O)Oc3ccccc3)c3cccc(C)c3n2)cc1
    -15% | -5%

Next part.
SMILES	HTT promoter inh	PMP22 txn
CCn1c(COc2cccc(C)c2)nc2ccccc21	-13%	?
COCCn1c(C)cc(O)c(C(c2ccccc2Cl)N2CCN(c3ccccc3)CC2)c1=O (configuration not stated)	-12%	-12%
COc1ccc(NC(=O)Cn2c(=O)n(Cc3ccccc3Cl)c(=O)c3cc(OC)c(OC)cc32)cc1	-7%	?
Cc1cccn2c(=O)c(/C=C(\C#N)c3nc4ccccc4[nH]3)c(Oc3ccc(C(C)(C)C)cc3)nc12	-4%[11.5 µM]	1%
CC(C)c1ccc(NC(=O)C(Cc2ccccc2)NS(=O)(=O)c2ccc3c(c2)oc(=O)n3C)cc1 (configuration not stated)	-26%	?
O=C(CSc1nc2c([nH]c3ccccc32)c(=O)n1-c1ccccc1)Nc1cccc(C(F)(F)F)c1	-24%	?
CCNC(=O)CC1C(=O)N(c2ccc(C)cc2)C(=O)N1CCOC (configuration not stated)	-9%	-6%
